Marburg entry inh: Marburg virus entry inhibition; actives 1.8% (n = 300,000); Potency, µM (series often up to 37.8 µM), for inactives: top-dose activity change, negative = inhibition, actives largely listed as inhibitors; Marburg virus pseudotyped entry inhibition, cell reporter; control for the full effect not named in the record; about a third of the inactives were read at about 46 µM; active = well fitted inhibition curve with a large enough effect; inconclusive = small, poorly fitted or top-dose-only effect, or effect the other way; inactive = flat fitted curve, though single readings scatter; tested in HEK293 cells; about a fifth of its hits are not listed in these tables; further: on the % scale 0 is the no-effect control and ±100 the full control effect; luciferase read-out
RE007 growth inh: less growth of the S. pombe RE007 Vpr strain. S. pombe RE007 Vpr strain, BacTiter-Glo ATP luminescence, 24 h; control for the full effect not named in the record. Potency, µM (top dose mostly 92.2 µM), without a hit: at the top dose activity change, negative = less growth. actives 0.21% (n = 360,000). AID 651644; active = well fitted falling curve with a large enough effect; inconclusive = small, poorly fitted or top-dose-only effect; inactive = no such curve, though single readings can be large or run the other way;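 further: on the % scale 0 is the no-effect control and ±100 the full control effect; nearly all actives have a fitted effect of over 50% in size; the assay follows cell death caused by Vpr and the record does not say whether a fall means rescue or toxicity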
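Fission yeast RE007 carrying one integrated HIV-1 vpr copy, seeded at OD 0.01 in PMG+AL medium with 23 nL pinned compound. Grown 24 h at 30 degrees; viability read by BacTiter-Glo luminescence after 5 min.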
NS1 function inh: inhibitors of influenza NS1 protein function; S. cerevisiae slowed by influenza A NS1, growth recovery by OD600; Potency, µM (top dose mostly 46.1 µM), inactives show top-dose activity, positive = more growth; actives 0.4% (n = 270,000); further: actives are rising curves; nearly all actives have a fitted effect of over 50% in size
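Recovery from NS1-induced slow growth read by OD600 in budding yeast switched to galactose assay medium (pH 6.0, -URA) at 1:100 dilution. Compound 23 nl per well; the matching strain lacking NS1 serves as control.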
Cruzain inh Det: blocks cruzain activity in presence of Triton detergent. purified cruzain, Z-FR-AMC fluorescence, 0.01% Triton. P25779. Potency, µM, for inactives: max response, negative = inhibition, most hits filed as inhibitors. actives 0.43% (n = 200,000); active means well fitted curve in the direction sought with a large enough effect; inconclusive means small, poorly fitted or top-dose-only effect, or another doubt; inactive means no such curve, though single readings can be large; an effect the other way counts as inactive or inconclusive;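 further: plate controls were neutral wells for no effect and buffer without enzyme for full effect; nearly all actives have a fitted effect of over 40% in size; top concentration of the series not given in the record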
Target sequence (P25779 123-467 limits assumed): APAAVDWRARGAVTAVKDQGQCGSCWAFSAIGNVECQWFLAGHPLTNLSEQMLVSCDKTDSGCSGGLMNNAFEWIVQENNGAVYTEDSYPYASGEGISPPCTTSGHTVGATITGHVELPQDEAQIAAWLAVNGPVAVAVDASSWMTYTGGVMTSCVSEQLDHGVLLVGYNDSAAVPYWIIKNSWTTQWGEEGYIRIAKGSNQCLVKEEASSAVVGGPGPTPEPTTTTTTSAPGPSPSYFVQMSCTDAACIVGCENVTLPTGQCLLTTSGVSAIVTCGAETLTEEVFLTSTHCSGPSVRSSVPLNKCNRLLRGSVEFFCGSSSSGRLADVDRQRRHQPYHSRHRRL
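Steps: dispense cruzain (1.5 nM final) in acetate buffer pH 5.5 with DTT and 0.01% Triton X-100; pin-transfer compounds; incubate 15 min RT; add Z-FR-AMC (2 uM final); read fluorescence every 30 s, using the 60 s intensity change.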
SARS PLpro yeast: blocks SARS-CoV papain-like protease in a yeast assay; Potency, µM (titrated, usually from 32.9 µM), without a hit: at the highest dose activity, positive = growth rescue; S. cerevisiae expressing SARS-CoV PLpro, growth rescue; control for the full effect not named in the record; actives 0.19% (n = 330,000); further: 0% is about no effect; nearly all actives have a fitted effect of over 55% in size; growth read by luminescence after 48 h
Cruzain inh noDet: blocks cruzain activity in detergent-free assay; P25779; purified cruzain, Z-FR-AMC fluorescence, no detergent; Potency, µM, for the others: max response, negative = inhibition, hits mostly inhibitors; actives 2.3% (n = 200,000); active means well fitted curve in the direction sought with a large enough effect; inconclusive means small, poorly fitted or top-dose-only effect, or another doubt; inactive means no such curve, though single readings can be large; an effect the other way counts as inactive or inconclusive;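 further: plate controls were enzyme without inhibitor for no effect and buffer without enzyme for full effect; nearly all actives have a fitted effect of over 40% in size; top concentration of the series not given in the record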
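Detergent-free condition (0.00005% Triton X-100) in acetate buffer pH 5.5 with DTT. 1.5 nM enzyme and compound were pre-mixed 15 min, then 2 uM Z-FR-AMC substrate added; reaction progress from fluorescence change between first and third reads (60 s).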
StopGo reporter: FMDV 2A StopGo reporter, luciferase signal; human cells with a luciferase reporter of 2A StopGo recoding; control for the full effect not named in the record; AID 1159524; actives 1.2% (n = 410,000); Potency, µM (series often up to 57.9 µM), for the others: top-dose signal change, negative = less light; active = well fitted falling curve with a large enough effect; inconclusive = small, poorly fitted or top-dose-only effect; inactive = no such curve, though single readings can be large or run the other way; tested in HEK293T cells; further: on the % scale 0 is the no-effect control and ±100 the full control effect; nearly all actives have a fitted effect of over 45% in size; luciferase light after 4 h
Lassa entry inh: inhibitors of Lassa virus binding or cell entry | Lassa virus pseudotype entry inhibition, cell reporter; control for the full effect not named in the record | Potency, µM (series often up to 37.9 µM), for inactives: at the top dose activity change, negative = inhibition, most hits filed as inhibitors | actives 1.2% (n = 300,000) | AID 540256; active means well fitted inhibition curve with a large enough effect; inconclusive means small, poorly fitted or top-dose-only effect, or effect the other way; inactive means flat fitted curve, though single readings scatter; tested in HEK293 cells; further: on the % scale 0 is the no-effect control and ±100 the full control effect; nearly all actives have a fitted effect of over 50% in size; luciferase read-out
The depositor's hits bear a star; ? = inconclusive; / = not tested or not shown; & = joins results of further samples; [ ] = remark or other dose. Unless noted, the call rests on the fitted dose curve; in most records, active means well fitted rising curve with a large enough effect; inconclusive means small, poorly fitted or top-dose-only effect; inactive means no such curve, though single readings can be large or run the other way. Potency means the concentration at half of the fitted maximal effect.

SMILES	Marburg entry inh	RE007 growth inh	NS1 function inh	Cruzain inh Det	SARS PLpro yeast	Cruzain inh noDet	StopGo reporter	Lassa entry inh
COc1cc(Cl)c(C)cc1NC(=O)c1cccc(OC)c1OC	?	-8%	-6%	/	-1%	/	19%	-1%[46.1 µM]
N#Cc1cc2c(nc1SCc1ccccc1)CCC2	1%	-7%	-1%	-1.5%	-12%	3%	0%	2%
O=C(O)c1cc(=O)c2ccc(Cl)cc2[nH]1	-8%&-8%&-8%&-8%&-8%&-8%&-8%&-8%	/	-5%	5.5%&2.3%&-4.0%	/	4%&3%&9%	-1%&-14%	/
NC(=O)c1ccc(NC(=O)COC(=O)c2ccc3ccccc3n2)cc1	18%[46.1 µM]	-14%	/	/	-2%	/	12%	0%[46.1 µM]
COP(=O)(NS(=O)(=O)c1ccccc1)OC	10%	4%	-1%	/	0%	/	-5%	14%
Oc1c(Cl)cc(Cl)cc1CNn1cnnc1	14%[46.1 µM]	-5%	3%	/	1%	/	14%	9%
CC(=O)OC(CC(=O)O)C[N+](C)(C)C (stereo not drawn)	?	16%	12%	5.3%	7%	0%	0%	?
CCOc1ccc(Cl)cc1S(=O)(=O)NCc1ccccn1	6%[46.1 µM]	-5%	/	/	1%	/	75%[activator]	8%
Cc1cc(C(C)(C)C)cc(C)c1CCNC(=O)c1c(C)noc1C	?	21%	/	/	0%	/	?	?
N#CC1c2ccccc2C=CN1C(=O)N(c1ccccc1)c1ccccc1 (stereo not drawn)	?	-19%	/	/	/	/	32µM*	?
O=C(CSc1nnc(-c2cccc(S(=O)(=O)N3CCCC3)c2)n1-c1ccccc1)Nc1ccc(C(=O)O)cc1	-5%[46.1 µM]	39%	/	/	-2%	/	-17%	-13%[46.1 µM]
CCCNS(=O)(=O)c1ccc(NC(=O)Cc2cccs2)cc1	9%[46.1 µM]	10%	-4%	-3.6%	-16%	-4%	29%	-14%
CNC(=O)Nc1ccc2nc(C)sc2c1	-6%	16%	-2%	/	1%	/	-5%	8%
COc1ccc(C(=O)NC(=S)Nc2ccc([N+](=O)[O-])cc2C)cc1OC	-19%	8%	6%	-1.2%	2%	1%	-26%	-1%
Cc1onc(-c2c(Cl)cccc2Cl)c1C(=O)N1CCOCC1	-1%[46.1 µM]	5%	11%	/	2%	/	-7%	-22%
Cc1nn(-c2ccccc2)c(Cl)c1C(=O)Nc1nnc(C2CCCCC2)s1	?	6%	-3%	-0.1%	0%	1%	-7%	?
COc1ccc(C(=O)CC2(CC(=O)c3ccc(OC)cc3)C(=O)N(C)C(=O)N(C)C2=O)cc1	9%[46.1 µM]	-15%	1%	-3.0%	-4%	2%	-1%	10%
COc1ccc(OC)c(NC(=O)C(=O)NNC(=O)c2cccs2)c1	20%	16%	0%	-3.4%	-2%	-15%	-22%	4%
CCCOc1ccc(C(=O)N(Cc2cccs2)c2ccc(C)cc2)cc1	-7%[46.1 µM]	/	/	-10%	/	-10%	22%	-19%[46.1 µM]
O=C(Nc1ccccc1)C1=C[C@H](c2ccc(C(F)(F)F)cc2)C[C@H](OCc2ccc(CO)cc2)O1	/	-2%	-32%	/	0%	/	-16%	/

An excerpt of these results, with values under each structure.
Results follow in this order: Marburg entry inh	RE007 growth inh	NS1 function inh	Cruzain inh Det	SARS PLpro yeast	Cruzain inh noDet	StopGo reporter	Lassa entry inh
> O=C(O)c1cc(=O)c2ccc(Cl)cc2[nH]1
  -8%&-8%&-8%&-8%&-8%&-8%&-8%&-8%	/	-5%	5.5%&2.3%&-4.0%	/	4%&3%&9%	-1%&-14%	/
> Cc1nn(-c2ccccc2)c(Cl)c1C(=O)Nc1nnc(C2CCCCC2)s1
  ?	6%	-3%	-0.1%	0%	1%	-7%	?
> CCOc1ccc(Cl)cc1S(=O)(=O)NCc1ccccn1
  6%[46.1 µM]	-5%	/	/	1%	/	75%[activator]	8%

The results go on:
SMILES	Marburg entry inh	RE007 growth inh	NS1 function inh	Cruzain inh Det	SARS PLpro yeast	Cruzain inh noDet	StopGo reporter	Lassa entry inh
COc1cccc(NC(=O)COC(=O)CCn2c(C)csc2=O)c1	27%	-5%	/	/	9%	/	-18%	13%
CC(N=C1NS(=O)(=O)c2ccccc21)C(=O)N1CCc2ccccc2C1 (stereo not drawn)	?	3%	6%	/	2%	/	48%[activator]	?
COc1cccc(C(=O)OCn2nnc3ccccc3c2=O)c1	-1%	9%	-10%	-5.0%	-9%	-5%	/	6%
O=C(CCC(=O)c1ccc(F)cc1)Nc1ccccc1Cl	13%	-10%	-4%	-2.6%	-5%	-10%	-4%	9%
COc1ccc(S(=O)(=O)c2c(O)c3ccc(C(=O)Nc4ccccc4)cc3[nH]c2=O)cc1	/	-3%	12%	-2.6%	-3%	-2%	?	?
COc1ccccc1CNC(=O)CC1N=C2c3ccccc3N=C(SCC(=O)Nc3ccc(F)cc3)N2C1=O (stereo not drawn)	/	/	/	-3.2%	/	?	22%	-9%[46.1 µM]
O=C(CSc1ncccn1)NCc1ccccc1Cl	?	4%	6%	-3.4%	3%	-1%	68%	61%[14.3 µM]
Cc1cc(Br)ccc1OCC(=O)NC1CCCC1	/	-27%	-14%	/	-7%	/	-8%	/
COC(=O)CCSCC(=O)N1N=C(c2ccc(Br)cc2)CC1c1cccc(OC)c1OC (stereo not drawn)	?	16%	/	/	-9%	/	-25%	/
CC(=O)C12CCCCC1CC1C3CC(C)C4(O)CC(=O)CCC4(C)C3CCC12C (stereo not drawn)	/	-9%	-3%	/	-2%	/	-28%	/
COC(=O)C(C)(C)ONC(=O)Nc1ccccc1Cl	-5%	-5%	0%	/	-1%	/	-18%	-13%[46.1 µM]
C=CCN(CC=C)C(=O)Cc1ccc(F)cc1	-6%	-7%	8%	2.0%	7%	-7%	3%	-2%
Cc1nc(-c2cccc(S(=O)(=O)N3CCC(C)CC3)c2)cs1	-14%	1%	-19%	-1.7%	-18%	-3%	-22%	-1%
COc1ccccc1C1CC(=O)n2c(nc(-c3ccccc3)c2-c2ccccc2)S1 (stereo not drawn)	-1%	-15%	18%	-5.9%	-13%	?	?	16%
CS(=O)(=O)N1CCN(c2ccccc2NC(=O)c2ccc(Br)o2)CC1	-28%	3%	-30%	-4.0%	0%	2%	-21%	?
Oc1ccc2ccccc2c1CN1CCN(c2ccccc2)CC1	-23%	6%	-47%	-3.9%	4%	7%	-13%	-7%
Cc1ccc(CCNC(=O)C2CCCN(C(=O)N(C)C)C2)cc1 (stereo not drawn)	-6%	-19%	4%	-1.4%	2%	-2%	28%	0%
CCOC(=O)[C@@H]1[C@H]2COc3cc(OC)ccc3[C@@H]2N2C(=O)N(c3ccc(Br)cc3)C(=O)[C@@]12C	/	-8%	26%	/	-6%	/	-17%	/
CC(=O)n1nc(-c2ccccc2)nc1NCc1ccc(N(C)C)cc1	13%[46.1 µM]	-8%	-9%	/	-1%	/	0%	?
CC(C)(C)C(=O)Nc1ccc2c(c1)-c1cc(NC(=O)C(C)(C)C)ccc1C2	6%	-14%	7%	1.5%	-2%	?	/	1%
O=C1c2ccccc2-c2onc3c(Oc4ccccc4)cc(O)c1c23	-5%	/	9%	-2.1%	-1%	20µM*	/	/
CC1c2nc3ccccc3n2C(CC(=O)NCCCN2CCOCC2)C(=O)N1Cc1ccccc1 (stereo not drawn)	5%[46.1 µM]	-6%	/	/	2%	/	-3%	-4%[46.1 µM]
Cn1c(CCc2ccccc2)n[nH]c1=S	?	4%	4%	/	0%	/	-8%	10%
O=C(Nc1ccc(Cl)cc1F)c1cc(S(=O)(=O)NC2CCCCCC2)ccc1F	/	/	/	-6.3%	/	7%	27%	?
COc1ccccc1CNC(=O)COC(=O)c1ccncc1	3%	8%	/	/	6%	/	0%	1%
N#CC(C#N)=Cc1ccc(-c2ccc(S(=O)(=O)N=C(N)N)cc2)o1	?	-3%	5%	-2.2%	16%	-8%	?	-12%
CCN1C(=O)C(O)(CC(=O)c2ccc(-n3cccc3)cc2)c2ccccc21 (stereo not drawn)	15%	-1%	-3%	-5.3%	-9%	12%	-12%	16%
CCC(C)C(=O)OCC1(c2ccc(C)cc2OC(=O)C(C)C)CO1 (stereo not drawn)	/	13%	-6%	/	-2%	/	-9%	/
CC1(c2nnc(-c3ccc(F)cc3)o2)CC(c2ccc(Cl)cc2)=NO1 (stereo not drawn)	/	11%	-4%	/	1%	/	?	/
CC1CCN(C(=S)NC(=O)C2CCCCC2)CC1	?	5%	2%	1.9%	21%	-7%	29%	11%
Cc1ccc(CCNC(c2ccc(F)cc2)c2nnc(-c3ccccc3Cl)o2)cc1 (stereo not drawn)	?	/	/	-7.4%	/	-1%	2%	?
FC(F)(F)Oc1ccc(Nc2nc3ccccc3o2)cc1	16%	-24%	-14%	-6.4%	-9%	-2%	33%[activator]	32%
CCOC(=O)/C(=N/Nc1ccc(Cl)cc1)Sc1nnnn1-c1ccc(C)cc1	-10%	-1%	-2%	-3.1%	-6%	?	13%	-2%
CC1([N+](=O)[O-])COP(=O)(NC2CC2)OC1 (stereo not drawn)	18%	6%	/	/	/	/	-24%	4%
COC(=O)/C(=C\c1ccc2c(c1)c1ccccc1n2C)NC(=O)c1ccccc1	?	-20%	2%	-5.9%	-11%	?	0%	3%

Three compounds from above, arranged by molecular weight, smallest number first.
SMILES	Marburg entry inh	RE007 growth inh	NS1 function inh	Cruzain inh Det	SARS PLpro yeast	Cruzain inh noDet	StopGo reporter	Lassa entry inh
CC1CCN(C(=S)NC(=O)C2CCCCC2)CC1	?	5%	2%	1.9%	21%	-7%	29%	11%
FC(F)(F)Oc1ccc(Nc2nc3ccccc3o2)cc1	16%	-24%	-14%	-6.4%	-9%	-2%	33%[activator]	32%
CCOC(=O)/C(=N/Nc1ccc(Cl)cc1)Sc1nnnn1-c1ccc(C)cc1	-10%	-1%	-2%	-3.1%	-6%	?	13%	-2%

Screening results (PubChem BioAssay)
